# Assay outcomes (PubChem BioAssay)
# Rango dissoc inh – inhibitors of RanGTP-induced Rango-importin beta complex dissociation | Potency, µM (titrated, usually from 46.1 µM), for inactives: top-dose activity change, negative = inhibition | Biochemical FRET Rango-importin beta, RanGTP-induced dissociation | AID 540253 | O95149+P62826 | 340,000 compounds, 0.071% hits; active means falling FRET ratio curve, often poorly fitted, with flat reads before Ran was added; inconclusive means other falling curves, or compound fluorescence or quenching; inactive means flat or rising ratio curve;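 also: potency is read from the fitted curve at half-maximal effect; % of control where 0% means no effect; nearly all actives have a fitted effect of over 45% in size; -100% = wells without RanGTP and RCC1; the record marks most hits as doubtful in a second field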
#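 Recombinant Rango FRET biosensor (EYFP–snurportin 1 IBB–cerulean CFP10) at 0.1 uM premixed with 0.25 uM importin beta in PBS, 1 mM DTT, 0.02% Tween-20, 0.1% BSA. Compound added 5 min; RanGTP-RCC1 (0.6 uM Ran, 2 mM GTP, 0.2 uM RCC1) then triggers release, read at 45 min.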
# miR-21 reporter – raises the signal of a miR-21 reporter. AID 2288. 340,000 tested, under 10 active. HeLa miR-21 FLuc reporter, luciferase, 48 h. Potency, µM (series often up to 38.3 µM), for inactives: at the top dose reporter change, positive = more light; active = well fitted rising curve with a large enough effect; inconclusive = small, poorly fitted or top-dose-only effect; inactive = no such curve, though single readings can be large or run the other way;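 also: % of control where 0% means no effect; miR-21 action dims this reporter so a rising signal means less miR-21 action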
#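 Luminescence from a firefly luciferase reporter carrying a miR-21 binding site downstream, stably expressed under a CMV promoter in HeLa cells that make miR-21 endogenously, reports miRNA modulation after 48 h compound exposure up to approximately 40uM final.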
# Rango-impB inh – prevents formation of the Rango-importin beta complex; Rango CFP/YFP FRET sensor + importin beta, 45 min; Potency, µM (doses to about 92.2 µM), inactives show at the top dose inhibition of complex formation; 340,000 compounds, 0.031% hits; active = rising FRET ratio curve, often small or poorly fitted; inconclusive = mostly compound fluorescence or quenching in the first reads; inactive = flat curves in all reads;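 also: potency is read from the fitted curve at half-maximal effect; 0% = DMSO wells and 100% = buffer wells lacking importin beta; nearly all actives have a fitted effect of over 15% in size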
# Target sequence (Q14974 whole entry, looked up): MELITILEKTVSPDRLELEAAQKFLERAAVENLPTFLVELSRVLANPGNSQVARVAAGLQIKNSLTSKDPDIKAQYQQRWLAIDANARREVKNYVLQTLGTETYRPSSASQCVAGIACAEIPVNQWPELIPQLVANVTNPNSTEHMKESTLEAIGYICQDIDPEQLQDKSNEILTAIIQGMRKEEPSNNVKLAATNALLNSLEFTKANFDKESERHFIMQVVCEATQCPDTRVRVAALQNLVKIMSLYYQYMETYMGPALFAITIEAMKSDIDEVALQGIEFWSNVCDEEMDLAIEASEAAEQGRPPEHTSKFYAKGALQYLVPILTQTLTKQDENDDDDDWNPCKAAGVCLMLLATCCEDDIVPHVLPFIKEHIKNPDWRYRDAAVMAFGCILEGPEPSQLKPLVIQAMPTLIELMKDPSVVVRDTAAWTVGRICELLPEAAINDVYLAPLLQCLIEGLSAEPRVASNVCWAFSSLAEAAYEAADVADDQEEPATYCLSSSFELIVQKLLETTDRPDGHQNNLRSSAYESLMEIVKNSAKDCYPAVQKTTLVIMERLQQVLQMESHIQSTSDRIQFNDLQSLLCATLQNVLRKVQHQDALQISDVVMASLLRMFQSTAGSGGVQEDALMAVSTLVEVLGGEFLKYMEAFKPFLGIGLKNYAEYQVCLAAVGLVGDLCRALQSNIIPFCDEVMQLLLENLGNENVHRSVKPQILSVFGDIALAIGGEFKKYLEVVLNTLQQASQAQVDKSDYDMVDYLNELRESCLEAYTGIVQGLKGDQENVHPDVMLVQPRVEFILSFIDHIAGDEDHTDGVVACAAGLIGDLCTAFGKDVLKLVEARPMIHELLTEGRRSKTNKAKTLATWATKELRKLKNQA
#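 FRET biosensor Rango (snurportin 1 IBB between N-terminal EYFP and C-terminal Cerulean), 50 nM in PBS/1 mM DTT/0.02% Tween-20/0.1% BSA, preincubated 5 min RT with compound; 0.125 microM importin beta added, 45 min RT, CFP/YFP FRET ratio read.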
# GLA inh pH 4.5 – inhibitors of human alpha-galactosidase A at pH 4.5 | P06280 | purified enzyme, 4-MU-alpha-Gal fluorescence, pH 4.5 | 230,000 tested, under 10 active | AID 1467 | activity change, negative = inhibition, % at 105 µM; inconclusive = small, poorly fitted or top-dose-only inhibition, or a rising curve; inactive = flat fitted curve, though single readings scatter; no compound was filed as active;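 also: 0% = full activity with enzyme and -100% = basal without enzyme; dose as in the result columns while the protocol names 77 µM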
# An asterisk follows results filed as active; ? = inconclusive; / = not tested or not shown; & = joins results of further samples.
Rango dissoc inh	miR-21 reporter	Rango-impB inh	GLA inh pH 4.5	SMILES
-2%	/	-0.1%	/	COc1ccc(C2C(C(C)=O)=C(C)N=c3s/c(=C\c4ccc5c(c4)OCO5)c(=O)n32)c(OC)c1 (configuration not stated)
9%	1%	1.1%	0	COC(=O)c1ccc(C(=O)OC)c(NC(=O)CN2CCN(c3ccccc3)CC2)c1
-14%	-4%	-0.3%	/	Cc1onc(C(=O)NC2CCCCC2)c1[N+](=O)[O-]
-5%	26%	3.3%	/	COc1ccc(NC(=O)c2sc3ncnc(N4CCN(c5ccccn5)CC4)c3c2C)cc1Cl
0%	-4%	1.2%	9	COC(C(=O)Nc1ccc(C(N)=O)cc1)c1ccccc1 (configuration not stated)
-24%	-27%	-4.3%	-7	Cc1nc2ccc(NC(=S)NCCCO)cc2nc1C
-6%	-2%	-2.7%	0	Cc1cccc(C)c1OCC(=O)Nc1nnc(C2CCCO2)s1 (configuration not stated)
-14%	-5%	1.2%	1	O=C(Nc1ccccn1)c1cccnc1
-10%	-59%	-1.7%	/	O=C(Nc1ccc2ccccc2c1)c1cccc([N+](=O)[O-])c1
14%	1%	-5.5%	10	COc1ccc(C(=O)CSc2nnc3n2CCCN3C(=O)Nc2ccccc2)cc1
-23%	-4%	-7.5%	-1	Cc1c(N(C)C(=O)C23CC4CC(CC(C4)C2)C3)c(=O)n(-c2ccccc2)n1C
-19%	-4%	2.1%	3	O=C(Nc1ccccc1Cl)N1CCN(c2ccc3nncn3n2)CC1
12%	-5%	1.1%	-21	CC1=NN(c2nc(-c3ccc(Cl)cc3)cs2)C(=O)C1
-2%	2%	-1.0%	1	O=[N+]([O-])c1c(NCc2ccco2)ccc2nonc12
-21%	0%	-0.3%	3	Cc1cc(C)nc(Sc2ncnc3sc4c(c23)CCC4)n1
13%	-11%&-6%	1.5%	/	COc1cc(CNc2ccc3[nH]c(=O)[nH]c3c2)ccc1OCc1ccccc1F
-11%	-12%	0.1%	5	O=C(O)/C(=C/c1ccco1)NC(=O)c1ccccc1
6%	-1%	-1.8%	-2	O=C(CN(Cc1ccco1)C(=O)c1ccc(Cl)cc1)Nc1ccc(Cl)c(Cl)c1
-3%	/	-1.8%	/	O=C(NCc1cccc(C(F)(F)F)c1)C1CC2Cn3c(nc4ccccc43)C2N1Cc1ccccc1 (configuration not stated)
39%	22%	-5.5%	-12	CC(C)(C)NC(=O)C(c1ccncc1)N(Cc1ccc(F)cc1)C(=O)c1ccc(-c2ccccc2)[nH]1 (configuration not stated)
4%	/	-2.2%	/	CCOc1cc(C(=O)NCC(C)(C)CNC(=O)c2cc(OCC)c(OCC)c(OCC)c2)cc(OCC)c1OCC
36%	-11%	0.9%	-20	C/C(=N\N(Cc1ccccc1)c1ccccc1)c1ccncc1
19%	-3%	?	13	CCOc1ccc2[nH]c(=O)c(CN(CCO)C(=O)c3ccc(F)cc3)cc2c1
4%	/	-0.8%	/	O=C(Cc1c(F)cccc1Cl)Nc1cccc(S(=O)(=O)NC2=NCCCCC2)c1
-14%	-56%	3.8%	/	Cc1nn(-c2ccccc2)c(Cl)c1/C=N/NC(=O)c1ccn[nH]1
-5%	6%	?	3	NC(=O)CSc1nnc(-c2ccc(S(=O)(=O)N3CCCCC3)cc2)n1-c1ccccc1
-7%	-5%	-0.4%	1	CCOC(=O)c1cc(OCC(=O)NC(C)C(C)C)cc(C(=O)OCC)c1 (configuration not stated)
-10%	-1%	1.4%	2	COC(=O)c1ccccc1NC(=O)NCc1ccccc1
31%	20%	-3.8%	-8	CCN(CC(=O)Nc1c(C(=O)OC)[nH]c2ccc(Cl)cc12)c1ccc2c(c1)OCO2
-4%	-1%	-0.8%	/	COc1ccc(Nc2cc(C(=O)NCCCN3CCOCC3)c3ccccc3n2)cc1

# (more compounds)
Rango dissoc inh	miR-21 reporter	Rango-impB inh	GLA inh pH 4.5	SMILES
16%	/	-1.6%	/	COc1cc(OC)cc(-c2cc3ncccc3cn2)c1
1%	/	-2.5%	/	COc1ccc2nc(N3CCN(C(=O)c4ccc([N+](=O)[O-])o4)CC3)sc2c1
23%	-9%	-1.4%	10	CC(C(=O)Nc1sc2c(c1C#N)CCCCC2)N1C(=O)c2ccccc2C1=O (configuration not stated)
-8%	/	-0.7%	/	COc1ccccc1NC(=O)COC(=O)c1ccc(S(=O)(=O)N2CCCCCC2)cc1
-8%	2%	-4.2%	7	Cn1nnnc1SCC1=C(C(=O)O)N2C(=O)[C@@H](NC(=O)[C@H](O)c3ccccc3)[C@H]2SC1
0%	/	1.7%	/	COc1ccc(S(=O)(=O)N2CCC(C(=O)NC3CCCCC3)CC2)cc1OC
12%	-51%	1.9%	/	COc1ccccc1OCC(=O)Nc1nc(C)c(C)s1
-12%	/	-4.2%	/	CCOC(=O)CC1(C)NC(C(=O)O)C(C)(C)S1 (configuration not stated)
-20%	0%	3.6%	/	COc1ccc(S(=O)(=O)N(C)CC(=O)N2CCCCCC2)cc1
-13%	-3%	-1.0%	4	CCNc1nc(NC(C)(C)C)nc(SCC(N)=O)n1
4%	2%	-0.1%	3	CSCCC(N=C(NS(=O)(=O)c1ccc(Br)cc1)c1ccccc1)C(=O)O (configuration not stated)
-8%	-7%	4.5%	5	COC(=O)C(C)Sc1nnc2n(-c3cccc(C)c3)c(=O)c3c4c(sc3n12)CCCC4 (configuration not stated)
-4%	-32%	-2.9%	/	COc1ccc(NC(=O)c2cc(C)no2)cc1
0%	-4%	-1.4%	-6	CCOC(=O)CCCCC(=O)c1[nH]c(=O)[nH]c1CSc1nc(C)cc(=O)[nH]1
2%	-13%	-0.2%	8	Cc1cccc(N(C(=O)Cn2nnc3ccccc32)C(C(=O)NCc2ccco2)c2ccncc2)c1 (configuration not stated)
1%	-4%	-3.7%	/	c1ccc(CNc2ncnc3[nH]ncc23)cc1
2%	-1%	1.7%	-12	Cc1ccc(/C=N/NC(=O)CNC(=O)COc2ccccc2)o1
10%	-1%	7.6%	-7	C[C@@H](C(=O)Nc1ccccc1N1CCOCC1)N1C(=O)C2CC=CCC2C1=O (some centres not stated)
?	-14%	?	-16	CC(=O)c1cc(NC(=O)c2ccc(Cl)cc2)c(=O)oc1/C=C/N(C)C
3%	-21%	0.3%	/	CCOc1ccc(S(=O)(=O)NCCC(=O)Nc2cccc(C(=O)OC)c2)cc1
-5%	-8%	-3.0%	1	O=C(O)c1cccc(S(=O)(=O)N2CCCC2)c1
?	/	?	/	O=C(NN=Cc1c(O)ccc2ccccc12)c1ccncc1
1%	/	0.1%	4&11	CCOc1ccc2c(c1)C(C)=CC(C)(C)N2
-1%	/	-2.4%	/	N#Cc1ccccc1Sc1ccccc1C(=O)NCC(c1ccco1)N1CCCC1 (configuration not stated)
9%	26%	0.2%	/	CCCc1cc(C(=O)Nc2ccc(C(=O)c3ccc(F)cc3)cc2)n(C)n1
5%	-2%	5.0%	/	O=C(CCN1C(=O)/C(=C\c2ccccc2F)SC1=S)N1CCCCC1
5%	-51%	-0.2%	-23	Fc1cccc(/C=N/Nc2nc3ccccc3[nH]2)c1
37%	0%	-1.6%	11	CC1=CC2=NC(=O)CC(C)(C(=O)N(CC(=O)NC3CCCC3)c3ccccc3C)N2C=C1 (configuration not stated)
-5%	-24%	4.4%	-3	CC(=O)N(Cc1ccco1)c1nc(C(=O)Nc2ccc(Cl)cc2)c(C)s1
1%	-2%	-1.5%	0	CC(=C/C(=O)O)/C=C/c1cccs1

# Whole records, looked up by structure. Screens in order: Rango dissoc inh, miR-21 reporter, Rango-impB inh, GLA inh pH 4.5
# Cc1nc2ccc(NC(=S)NCCCO)cc2nc1C is entered as -24%, -27%, -4.3%, -7
# O=C(Nc1ccccn1)c1cccnc1 is entered as -14%, -5%, 1.2%, 1
# COC(=O)C(C)Sc1nnc2n(-c3cccc(C)c3)c(=O)c3c4c(sc3n12)CCCC4 (configuration not stated) is entered as -8%, -7%, 4.5%, 5

# Sorted by the number under GLA inh pH 4.5 (largest number first): three from the list above
Compound	GLA inh pH 4.5
CCNc1nc(NC(C)(C)C)nc(SCC(N)=O)n1	4
CSCCC(N=C(NS(=O)(=O)c1ccc(Br)cc1)c1ccccc1)C(=O)O (configuration not stated)	3
CC(=O)c1cc(NC(=O)c2ccc(Cl)cc2)c(=O)oc1/C=C/N(C)C	-16

# The list goes on:
Rango dissoc inh	miR-21 reporter	Rango-impB inh	GLA inh pH 4.5	SMILES
11%	-40%	1.2%	/	Cc1noc(C(=O)Nc2cccc(Cl)c2)c1Cl
-2%	-3%	0.4%	1	Cn1nc(C(=O)N2CCCC2)c2ccccc2c1=O
15%	-19%	0.8%	5	CC(C)c1ccc(/C=C/C(=O)NCc2ccc(S(N)(=O)=O)cc2)cc1
23%	-28%	-0.1%	3	O=C(CSc1nnc(NC(=O)c2ccco2)s1)Nc1ccccc1F
18%	1%	8.8%	/	CC(C)C[C@@H](CC#N)N1CCN(Cc2ccccc2)CCC1=O
3%	-2%	7.3%	-13	COc1ccc(N(CC(=O)N2CCc3ccccc32)S(=O)(=O)c2c(C)noc2C)cc1
0%	-63%	-0.1%	5	COc1cccc(/C=N/NC(=O)NC2CCCCC2)c1O
1%	1%	-4.5%	-1	CCn1c(COc2ccccc2C)nnc1SCC(=O)Nc1cc(C)on1
5%	-6%	7.4%	-3	O=C(Cn1ccc(C(F)(F)F)n1)N=Nc1c(O)[nH]c2ccc(Br)cc12
?	3%	?	17	CC(=O)Nc1ccc(S(=O)(=O)Nc2nc3cc4c(cc3nc2Cl)OCCO4)cc1
-18%	/	1.0%	/	O=C(COc1cccc(C(F)(F)F)c1)Nc1cccc(S(=O)(=O)NC2=NCCCCC2)c1
-5%	0%	-0.5%	3	Cc1cnc(NC(=O)c2ccc3c(c2)C(=O)N(Cc2ccco2)C3=O)s1
-8%	0%	?	/	Cc1cc(N2CCN(CC(O)C(F)(F)F)CC2)c2ccccc2n1 (configuration not stated)
2%	-4%	0.5%	-1	CCOC(=O)CC1C(=O)NCCN1C(=O)c1cccc(C(F)(F)F)c1 (configuration not stated)
23%	-15%	0.6%	0	COc1ccc(-c2cc(C(F)(F)F)nc(NC3CCCC3)n2)cc1OC
15%	1%	3.1%	2	O=C(O)c1ccc(-c2nc3scc(-c4ccccc4)c3c(=O)[nH]2)cc1
-6%	0%	6.5%	/	CCN(CC)C(=O)c1ccccc1NS(=O)(=O)c1ccc(OC)c(C(=O)N2CCOCC2)c1
14%	0%	6.1%	/	COc1ccc(N2CCN(C(=O)Cn3ncc4c([nH]c5ccccc54)c3=O)CC2)cc1
14%	/	6.3%	/	COC(=O)Cc1ccc(OC(=O)CCS(=O)(=O)c2ccc(C)cc2)cc1
-7%	-10%	0.1%	-1	COc1cccc2cc(C(=O)NCC3CCCO3)c(=O)oc12 (configuration not stated)
0%	/	-3.0%	/	CS(=O)(=O)c1ccc(-c2cccc(NC(=O)c3ccco3)c2)nn1
4%	1%	0.2%	2	CC(C)(C)C(=O)Nc1cccc(-c2nnc(-c3cccc(NC(=O)C(C)(C)C)c3)o2)c1
-2%	-1%	0.1%	-9	O=C(NNc1ccc(C2CCCCC2)cc1)C(O)(c1ccccc1)c1cccs1 (configuration not stated)
-7%	-4%	0.3%	/	COc1cccc(-c2c(C(=O)N/N=C(\C)c3cccnc3)nnn2-c2nonc2N)c1
5%	-12%	1.6%	3	COc1ccc(C)cc1NC(=O)C(C)N(c1ccc(C)cc1)S(C)(=O)=O (configuration not stated)
-9%	-1%	1.3%	7	C=CCOc1cccc(CNn2nnnc2N)c1
1%	1%	2.5%	0	CNC(=S)N(CCc1ccc(OC)c(OC)c1)C1CC(=O)N(c2ccccc2)C1=O (configuration not stated)
?	-57%	?	-23	CC(=O)c1sc(N/N=C/c2ccc(C(C)C)cc2)nc1C
4%	-2%	0.2%	-8	O=C1CCCc2c1cc(C(=O)NC1CCSC1=O)c(=O)n2-c1ccccc1 (configuration not stated)
17%	/	4.6%	/	O=C(CN1C(=O)NC2(CCCC2)C1=O)Nc1nc2ccc(F)cc2s1
14%	-9%	-1.1%	/	COc1ccc(OC)c(CCNC(=O)c2sc3nc4n(c(=O)c3c2C)CCC4)c1
-13%	-2%	-1.0%	/	O=C(c1ccc(S(=O)(=O)N2CCCCCC2)cc1)N1CCN(c2ccccc2)CC1

# Only part of the results is shown; the hit share may differ from the screen's.
